From PubChem BioAssay
MLL AF4-AF9 inh = inhibitors of AF4 peptide binding to AF9, primary screen, biochemical, AlphaScreen, biotin-AF4 peptide, FLAG-AF9, single point; inhibition, % at 10 µM; 350,000 compounds, 0.47% hits; Protein AF-9 (Homo sapiens), P42568;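 active = every replicate reaching a set inhibition limit, whatever the replicate mean, cut at about 25% in these data; inconclusive = mean inhibition reaches that limit but some replicates miss it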;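 also: 0% = plate neutral control median and 100% = total signal loss; the record names both 10 and 1 µM as test concentration; the first replicate is given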
Target sequence (P42568 whole entry, looked up): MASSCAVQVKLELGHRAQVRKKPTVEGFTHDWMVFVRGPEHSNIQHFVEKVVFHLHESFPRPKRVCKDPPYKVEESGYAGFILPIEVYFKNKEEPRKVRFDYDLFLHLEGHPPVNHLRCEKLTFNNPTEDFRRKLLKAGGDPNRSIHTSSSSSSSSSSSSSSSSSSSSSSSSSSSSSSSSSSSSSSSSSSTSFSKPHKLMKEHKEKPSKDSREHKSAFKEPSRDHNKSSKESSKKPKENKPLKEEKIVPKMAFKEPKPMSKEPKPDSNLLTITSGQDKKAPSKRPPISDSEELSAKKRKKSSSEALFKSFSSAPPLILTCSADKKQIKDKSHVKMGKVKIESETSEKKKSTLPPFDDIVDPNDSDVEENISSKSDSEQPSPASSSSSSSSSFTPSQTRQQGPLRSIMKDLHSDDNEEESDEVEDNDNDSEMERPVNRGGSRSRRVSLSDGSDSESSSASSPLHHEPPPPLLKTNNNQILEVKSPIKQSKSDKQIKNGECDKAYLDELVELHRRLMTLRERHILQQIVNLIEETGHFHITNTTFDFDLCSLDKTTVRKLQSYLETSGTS
A1 inh = caspase 3/7 activation in MEF A1-2A-BIM cells, primary screen, A1 inhibitor project, cell-based, luminescence, HTS | 330,000 compounds, 0.066% hits | Caspase-Glo 3/7 luminescence, 3 h; percent of clofoctol response, vehicle zero | caspase activation, % (concentration not given with the values);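 active = over half of replicate activation scores above 10%, or exactly half above 10 with the replicate mean above 10; inconclusive = replicate mean below 10 yet half the replicates above 10; inactive = over half of replicates below 10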;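 also: wells of about 30 µL received 50 nL stock; many hits fall short of the cut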
Calb FLC = C. albicans growth inhibition with fluconazole, primary screen, CaCi-2 strain, Alamar Blue fluorescence; 300,000 compounds, 0.57% hits; growth inhibition, % (no concentration beside the values); C. albicans CaCi-2 (fluconazole-resistant clinical isolate) + fluconazole, 48 h;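 active = most replicates above 75%; inconclusive = exactly half above 75%; inactive = most below 75%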;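 also: all wells also contain fluconazole at 8 µg/ml as a sub-toxic cotreatment; 0% = median of DMSO wells and 100% = median of geldanamycin control wells; wells of about 8 µL received 7.5 nL stock; the first replicate is given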
Vif TR-FRET = inhibitors of Vif binding to APOBEC3G peptide, primary screen, biochemical, TR-FRET, GST-Vif 1-94, biotin-A3G peptide, dose response retest (AID 1117319). TR-FRET GST-Vif / biotin-A3G peptide binding; higher % means a stronger effect; test concentration not given here; strong numbers were not always called active. inhibition, %, or IC50 in µM where a hit was titrated. 260,000 compounds, 0.57% hits;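 active = above the screen mean plus three standard deviations and confirmed in dose response; inconclusive = results disagree or hit not tested in dose response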;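 also: Vif residues 1-94 fused to GST binding biotinylated APOBEC3G peptide 110-148; 0% = full assay without inhibitor and 100% = GST in place of GST-Vif; retest series ran down from 100 µM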
LANA-H2A inh = blockers of LANA interaction with H2A/H2B – biochemical, FP readout, HTS, primary screen | Protein LANA1 (Human herpesvirus 8 type P (isolate GK18)), Q9QR71 | cell-free LANA-H2A/H2B peptide, fluorescence polarization | inhibition, % (concentration not given with the values) | 320,000 compounds, 0.6% hits; in the data active = inhibition mostly above about 10%, no sharp cut-off; inactive = mostly below about 6.7%;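 also: stock transfer was 7.5 nL into about 10 µL; 0% = median of vehicle wells and 100% = median of positive control wells; one replicate is shown; the record names a cut of 25% in any replicate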
T cruzi inh = inhibitors of intracellular T. cruzi growth, primary screen, luminescence, NIH3T3 host cells; T. cruzi beta-gal in NIH3T3, 90 h; inhibition, % (test concentration not listed); 300,000 compounds, 1.4% hits; AID 1885, 2009;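 active = mean inhibition across valid replicates above about 55%, limit read from the data; inconclusive = mean below that limit but half or more replicates reach it; inactive = mean below it, under half of replicates reach it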;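 also: signal also drops with host cell toxicity which is not excluded here; 0% = plate median of DMSO wells and 100% = zero luminescence signal; higher percent means less beta-gal luminescence so fewer parasites; stock transfer was 50 nL into about 50 µL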
RanGTP-Imp inh = inhibitors of RanGTP-importin-beta interaction, primary screen, biochemical, FRET, CFP-Ran, YFP-importin-beta, homogeneous; Ran GTPase (GTP-bound) - importin-beta complex; cell-free CFP-Ran/YFP-importin-beta FRET ratio; inhibition, % (concentration not given with the values); 300,000 compounds, 1.1% hits; AID 2216, 2009;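 active = most replicates above 15%; inconclusive = exactly half above 15%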;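 also: 0% = DMSO wells and 100% = Ran loaded with GDP instead of GTP; wells of about 40 µL received 100 nL stock; the first replicate is given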
Beta cell apopt = inhibitors of cytokine-induced beta cell apoptosis, primary screen, luminescence; INS-1E cytokine-induced death, ATP luminescence, 48 h; percent of positive-control rescue, neutral wells zero; protection from apoptosis, % (concentration not given with the values); 300,000 compounds, 0.8% hits;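 active = all replicates at 75% or more, or half of them and the mean; inconclusive = half reach 75% but not the mean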;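 also: 0% = cytokine-treated negative control wells and 100% = positive control rescue; higher means more ATP so stronger rescue from cytokine killing; wells of about 40 µL received 100 nL stock; the first replicate is given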
Active calls of the source: *; & = joins results of further samples.

Cc1cc(C)cc(NC(=O)CN2CCC(C(=O)c3ccccc3)CC2)c1 was read as MLL AF4-AF9 inh -3.0, A1 inh 0.1, Calb FLC -4, LANA-H2A inh -0.7, T cruzi inh 15, RanGTP-Imp inh -3.0 and Beta cell apopt -8.
For CC(C)(C)c1ccc(/C=N/NC(=O)CN2CCS(=O)(=O)CC2)cc1 the results were MLL AF4-AF9 inh 1.2, A1 inh 0.2, Calb FLC 3, LANA-H2A inh -0.8, T cruzi inh 7, RanGTP-Imp inh -2.7 and Beta cell apopt -4.
`CNC(=S)NNC(=O)CCn1nc(C)c(Br)c1C` gave A1 inh 0.5, Calb FLC -9, Vif TR-FRET -2%, LANA-H2A inh 3.3, T cruzi inh 3, RanGTP-Imp inh -0.9 and Beta cell apopt 6.
CSCCC(=O)N1CCCC(CNC(=O)c2ccccc2Cl)C1 (stereo not given) was read as MLL AF4-AF9 inh -0.6, A1 inh 0.9, Calb FLC -10, Vif TR-FRET 8%, LANA-H2A inh -0.7, T cruzi inh -3, RanGTP-Imp inh -2.3 and Beta cell apopt 0.
Cn1nc(C(F)(F)F)c(-c2cccc(C(F)(F)F)c2)c1NC(=O)CSCC(=O)O was read as A1 inh -0.2, Calb FLC -9, Vif TR-FRET 8%, LANA-H2A inh 0.6, T cruzi inh -15, RanGTP-Imp inh 4.8 and Beta cell apopt -3.
CC(=C\c1ccco1)/C=C1/SC(=S)N(CC(=O)O)C1=O was read as MLL AF4-AF9 inh 1.8, A1 inh 0.0, Calb FLC 6, Vif TR-FRET 15µM*, LANA-H2A inh 5.8, T cruzi inh -2, RanGTP-Imp inh -17 and Beta cell apopt -3.
CC(=O)NCCNC(=O)c1ccc(CSc2ccc(Cl)cc2)cc1 was read as MLL AF4-AF9 inh 1.0, A1 inh -1.8, Calb FLC 1, LANA-H2A inh 4.8, T cruzi inh -5, RanGTP-Imp inh 4.0 and Beta cell apopt -8.
`Cc1cc(C(=O)CN2C(=O)NC(C)(c3cc(F)ccc3F)C2=O)c(C)n1C1CC1` (stereo not given) gave MLL AF4-AF9 inh 6.3, A1 inh 1.7, Vif TR-FRET 0%, LANA-H2A inh -0.1 and Beta cell apopt 15.
CS(=O)(=O)NC1c2cccc3cccc(c23)C1Sc1nncn1/N=C/c1ccco1 (stereo not given) was read as A1 inh 3.0, Calb FLC 11, Vif TR-FRET 7%, LANA-H2A inh 0.3, T cruzi inh -5, RanGTP-Imp inh 3.2 and Beta cell apopt 4.
Screening Cc1ccc(NC(=O)CS(=O)CC(=O)NC2CCN(Cc3ccccc3)CC2)c(C)c1 (stereo not given) returned A1 inh 0.2, Calb FLC 33, Vif TR-FRET -3%, LANA-H2A inh -0.7, T cruzi inh -9, RanGTP-Imp inh 0.0 and Beta cell apopt -5.
Screening O=C1c2ccccc2C(=O)N1CCc1csc(-c2ccccc2)n1 returned A1 inh 0.0, Calb FLC 5, Vif TR-FRET 0%, LANA-H2A inh -14, T cruzi inh -12, RanGTP-Imp inh inconclusive and Beta cell apopt 1.
For Cc1nn(Cc2c(Cl)cccc2Cl)c(C)c1NC(=O)c1cnn2c(C(F)F)cc(-c3ccccc3)nc12 the results were A1 inh 0.8, Calb FLC 4, Vif TR-FRET 4%, LANA-H2A inh 1.5, T cruzi inh 19, RanGTP-Imp inh -1.8 and Beta cell apopt -6.
Screening Cc1cc(C)c2c(c1)NC(C(=O)O)C1CC=CC21 (stereo not given) returned MLL AF4-AF9 inh 13, A1 inh -1.5, Calb FLC -5, LANA-H2A inh 0.6, T cruzi inh -27, RanGTP-Imp inh 4.8 and Beta cell apopt -2.
Cn1ncc(Cl)c1C(=O)NCc1ccc2c(c1)OCO2 was read as MLL AF4-AF9 inh 0.0, A1 inh 0.7, Calb FLC -11, Vif TR-FRET -6%, LANA-H2A inh -3.8, T cruzi inh -5 and RanGTP-Imp inh 8.8.
For CCOc1ccccc1NC1c2ccccc2C(=O)N1c1ccc(C)cn1 (stereo not given) the results were MLL AF4-AF9 inh 7.5, A1 inh 0.4, Calb FLC 2, Vif TR-FRET 4%, LANA-H2A inh 0.4, T cruzi inh 17, RanGTP-Imp inh -2.6 and Beta cell apopt 5.
COc1cc(C(=O)N2CCC(NC(=O)C(Cc3ccc(C)cc3)NC(C)=O)CC2)cc(OC)c1OC (stereo not given) was read as MLL AF4-AF9 inh -3.7, A1 inh -0.1, Calb FLC inconclusive, Vif TR-FRET -3%&4%, LANA-H2A inh 1.6, T cruzi inh -12, RanGTP-Imp inh -1.8 and Beta cell apopt 5.
`CCOc1ccccc1N1CCN(CC(=O)N(CC(C)C)c2c(N)n(CC(C)C)c(=O)[nH]c2=O)CC1` gave MLL AF4-AF9 inh -6.1, A1 inh -0.3, Calb FLC -16, Vif TR-FRET 5%, LANA-H2A inh inactive, T cruzi inh -3, RanGTP-Imp inh inconclusive and Beta cell apopt 0.
For O=C(Nc1ccc(F)cc1)C1CCN(S(=O)(=O)c2cccc3nonc23)CC1 the results were MLL AF4-AF9 inh 0.9, A1 inh -0.3, Calb FLC 1, LANA-H2A inh 0.4, T cruzi inh 17, RanGTP-Imp inh -1.2 and Beta cell apopt 3.
CCN(CC)CCNC(=O)c1cn(CC)c2ccc(S(=O)(=O)N3CCOCC3)cc2c1=O was read as MLL AF4-AF9 inh -1.0, A1 inh -0.6, Calb FLC 0, LANA-H2A inh 8.5*, T cruzi inh -10, RanGTP-Imp inh 0.9 and Beta cell apopt 3.
CCOc1ccc(Nc2nc(-c3cccnc3)cs2)cc1 was read as MLL AF4-AF9 inh -4.2, A1 inh -7.9, Calb FLC 53, Vif TR-FRET 9%, LANA-H2A inh -2.0, T cruzi inh 15, RanGTP-Imp inh 1.5 and Beta cell apopt 0.
`Cc1ccc(NC(=O)C(=O)NC(C)C2COc3ccccc3O2)cc1` (stereo not given) gave A1 inh 0.2, Calb FLC -3, Vif TR-FRET 1%, LANA-H2A inh 4.3, T cruzi inh -3, RanGTP-Imp inh -0.7 and Beta cell apopt 7.
Cc1ccc(C2(C)NC(=O)N(CC(=O)Nc3cc(S(=O)(=O)N(C)C)ccc3C)C2=O)cc1 (stereo not given) was read as MLL AF4-AF9 inh 1.3, A1 inh -0.4, Calb FLC 15, LANA-H2A inh -0.3, T cruzi inh -18, RanGTP-Imp inh 6.3 and Beta cell apopt 3.
Cc1nc(SCC(=O)N2CCC(C(N)=O)CC2)n[nH]1 was read as A1 inh 0.7, Calb FLC -5, Vif TR-FRET -4%, LANA-H2A inh -0.1, T cruzi inh -17, RanGTP-Imp inh -6.1 and Beta cell apopt 2.
O=c1cc(O)c2sc3nc(C(F)(F)F)c4c(c3c2[nH]1)CCCCC4 was read as MLL AF4-AF9 inh 0.4, A1 inh 0.3, Calb FLC 7, LANA-H2A inh 2.7, T cruzi inh -12, RanGTP-Imp inh 0.3 and Beta cell apopt 0.
O=[N+]([O-])c1ccc(C2=Nc3cc(Cl)ccc3OC2)cc1 was read as MLL AF4-AF9 inh 1.4, A1 inh -0.9, Calb FLC -20, Vif TR-FRET 1%, LANA-H2A inh -4.4, T cruzi inh 0, RanGTP-Imp inh 4.1 and Beta cell apopt -1.
`O=C(CSc1nc2ccccc2s1)Nc1ncccn1` gave A1 inh -0.7, Calb FLC 0, Vif TR-FRET 10%, LANA-H2A inh 1.5, T cruzi inh -3, RanGTP-Imp inh 0.0 and Beta cell apopt 2.
COc1ccc(S(=O)(=O)N2CCOCC2)cc1NC(=O)CNC(=O)c1cccs1 was read as MLL AF4-AF9 inh -3.2, A1 inh -0.1, Vif TR-FRET -1%, LANA-H2A inh 1.8 and Beta cell apopt -1.
Screening CCC(C)NC(=O)CSc1ccc(S(=O)(=O)N(C)C2CCCCC2)cn1 (stereo not given) returned MLL AF4-AF9 inh 0.0, A1 inh -0.6, LANA-H2A inh 3.1 and Beta cell apopt 9.
For COc1ccc(C(=O)Nc2cccc(-c3ccc(N4CCOCC4)nn3)c2)cc1OC the results were MLL AF4-AF9 inh 0.7, A1 inh 0.2, Calb FLC 7, Vif TR-FRET -11%, LANA-H2A inh -3.2, T cruzi inh -3, RanGTP-Imp inh 0.5 and Beta cell apopt 22.
O=C(OC(C(=O)NC1CCCCC1)c1ccccc1)c1ccco1 (stereo not given) was read as A1 inh 0.3, Calb FLC -19, Vif TR-FRET -2%, LANA-H2A inh -4.7, T cruzi inh 0, RanGTP-Imp inh 0.8 and Beta cell apopt -5.
Cc1c(C(=O)Nc2ccc3c(c2)OCO3)sc2ncn(CC(=O)N3CC(C)CC(C)C3)c(=O)c12 (stereo not given) was read as A1 inh 0.4, Calb FLC -13, Vif TR-FRET 6%, LANA-H2A inh -1.3, T cruzi inh 1, RanGTP-Imp inh 2.5 and Beta cell apopt 0.
`N#CCCN(C(=O)COC(=O)c1ccc(S(=O)(=O)Nc2ccccc2)cc1)c1ccccc1` gave A1 inh -1.1, Calb FLC 7, Vif TR-FRET -5%, LANA-H2A inh -0.6, T cruzi inh 1, RanGTP-Imp inh 0.3 and Beta cell apopt -1.
For O=C1Nc2c(Br)cc(Br)cc2C1(O)N1CCOCC1 (stereo not given) the results were A1 inh -1.2, Calb FLC -50, Vif TR-FRET -6%, LANA-H2A inh 1.1, T cruzi inh -10, RanGTP-Imp inh -4.3 and Beta cell apopt -21.
Screening COc1cc(CO)c(Br)cc1OCC(=O)Nc1ccccc1C returned MLL AF4-AF9 inh -3.5, A1 inh -0.2, Calb FLC -2, Vif TR-FRET -39%, LANA-H2A inh -4.1, T cruzi inh 1, RanGTP-Imp inh 1.5 and Beta cell apopt -4.
Screening CC(=O)N1N=C(c2cccc([N+](=O)[O-])c2)OC1(C)CC(=O)Nc1ccccc1 (stereo not given) returned MLL AF4-AF9 inh 2.6, A1 inh 2.3, Calb FLC 2, LANA-H2A inh -2.1, T cruzi inh 8, RanGTP-Imp inh 0.2 and Beta cell apopt 3.
For Cc1ccc(-c2c[n+](CC(=O)Nc3ccc(C)cc3C)c3n2CCC3)cc1 the results were MLL AF4-AF9 inh -3.3, A1 inh 2.5, Calb FLC -12, Vif TR-FRET 6%, LANA-H2A inh -1.1, T cruzi inh 4 and RanGTP-Imp inh 2.7.
Cc1ccc(S(=O)(=O)N2CCN(C(=O)COC(=O)CNC(=O)c3ccc(C(C)(C)C)cc3)CC2)c(C)c1 was read as MLL AF4-AF9 inh -1.5, A1 inh 1.1, LANA-H2A inh -3.0 and Beta cell apopt -6.
CC1Cc2nc(SCC(=O)NCC3CCCO3)n(Cc3ccccc3)c(=O)c2S1 (stereo not given) was read as A1 inh 0.3, Calb FLC 7, Vif TR-FRET inconclusive, LANA-H2A inh 10, T cruzi inh 18, RanGTP-Imp inh 1.8 and Beta cell apopt -5.
For CC1CC(C)CN(S(=O)(=O)c2ccc(F)c(C(=O)Nc3ccc(Cl)cc3F)c2)C1 (stereo not given) the results were MLL AF4-AF9 inh -3.2, A1 inh -1.2, Calb FLC -6, Vif TR-FRET 11%, LANA-H2A inh 5.2, T cruzi inh -1 and RanGTP-Imp inh -2.9.
Cn1c(=O)c2nc(Cl)c(-c3ccccc3)nc2n(C)c1=O was read as MLL AF4-AF9 inh -0.6, A1 inh -0.1, Calb FLC -15, Vif TR-FRET 0%, LANA-H2A inh -11, T cruzi inh -18, RanGTP-Imp inh 2.3 and Beta cell apopt 3.

Random draw from the library, and some 4.3% of all compounds hit somewhere here.
